Screening results (PubChem BioAssay)
Menin-MLL FL inh – qHTS Assay for Inhibitors Targeting the Menin-MLL Interaction in MLL Related Leukemias: Competition With Fluorescein Labeled MLL-derived Peptide. Fluorescence polarization, fluorescein-MLL peptide displacement from menin. FP activity change, % at 61.4 µM. 290,000 tested, under 10 active. AID 1766, 2009; inconclusive = falling polarisation curve, or a change in total fluorescence; inactive = total fluorescence flat and polarisation flat or rising; no compound was filed as active; the % refers to the polarisation; negative = inhibition;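 further: % of control where 0% means no effect; inhibitors lower the polarisation; unlabelled MLL peptide was the positive control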
ClpP mod – qHTS Assay for Activators of ClpP | ATP-dependent Clp protease proteolytic subunit (Bacillus subtilis (strain 168)), P80244 | purified B. subtilis ClpP, FRET peptide cleavage, 20 min | Potency, µM (doses to about 57.5 µM), for inactives: at the top dose activity change, negative = active | 340,000 compounds, 1.9% hits | AID 651965, 2013; active = well fitted falling curve with a large enough effect; inconclusive = small, poorly fitted or top-dose-only effect; inactive = no such curve, though single readings can be large or run the other way; further: potency means the concentration at half of the fitted maximal effect; the source files actives as falling curves though it sought activators and does not explain the sign; nearly all actives have a fitted effect of over 65% in size; many hits overshoot -100%
Target sequence (P80244 whole entry, looked up): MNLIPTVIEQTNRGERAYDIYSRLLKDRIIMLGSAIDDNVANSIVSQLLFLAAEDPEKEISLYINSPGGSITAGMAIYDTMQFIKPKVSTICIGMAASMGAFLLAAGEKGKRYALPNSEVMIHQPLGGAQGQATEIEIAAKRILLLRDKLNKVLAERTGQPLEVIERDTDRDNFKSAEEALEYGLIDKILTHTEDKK
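Purified B. subtilis ClpP, 10 microg/mL final in Tris/HCl pH8 with KCl, BSA, glycerol and Tween-20, cleaved an Abz/nitrotyrosine-quenched decapeptide. Fluorescence (ex 320, em 430) was read at 0 and 20 min at room temperature. Delta was normalized to 5.8 microM ADEP and DMSO/no-enzyme controls.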
TRPML1 agonist – qHTS for Agonists of the Human Mucolipin Transient Receptor Potential 1 (TRPML1). Mucolipin-1 (Homo sapiens), Q9GZU1. TRPML1-expressing cells, Ca2+ dye fluorescence, FDSS; host cell line not named in the record; reference of the full effect not given here. activation, % (concentration not given with the values). 410,000 compounds, 0.12% hits; in the data active = activation above about 50%; inconclusive = about 30% to 50%; inactive = below about 30%; further: 0% is about no effect; the text of the record puts the active cut at 80%
Target sequence (Q9GZU1 whole entry, looked up): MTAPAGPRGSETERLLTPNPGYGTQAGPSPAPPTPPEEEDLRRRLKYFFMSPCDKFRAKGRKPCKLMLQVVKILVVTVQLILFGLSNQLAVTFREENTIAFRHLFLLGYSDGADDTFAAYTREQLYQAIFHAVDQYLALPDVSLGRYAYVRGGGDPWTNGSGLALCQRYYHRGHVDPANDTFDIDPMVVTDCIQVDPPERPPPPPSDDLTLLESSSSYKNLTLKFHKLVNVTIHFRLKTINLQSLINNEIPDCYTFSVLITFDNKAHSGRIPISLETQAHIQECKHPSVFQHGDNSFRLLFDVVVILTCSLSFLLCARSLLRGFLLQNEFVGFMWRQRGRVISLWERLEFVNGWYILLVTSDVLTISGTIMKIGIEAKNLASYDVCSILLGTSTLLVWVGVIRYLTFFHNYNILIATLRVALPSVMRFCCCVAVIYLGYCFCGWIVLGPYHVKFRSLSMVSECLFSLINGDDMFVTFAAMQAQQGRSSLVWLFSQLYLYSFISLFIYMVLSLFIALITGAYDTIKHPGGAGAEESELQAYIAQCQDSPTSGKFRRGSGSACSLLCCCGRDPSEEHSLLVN
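Tetracycline-induced TRPML1-DL cells are seeded and incubated overnight before loading with a no-wash Ca2+ dye and quencher. Agonist activity is taken from the 110 s fluorescence read following compound pin-transfer on an FDSS, before EC80 54-4 challenge.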
gsp antag – qHTS for Antagonists of gsp, the Etiologic Mutation Responsible for Fibrous Dysplasia/McCune-Albright Syndrome: qHTS; AID 624288, 2012; gsp-mutant cells, cAMP HTRF, 30 min; control for the full effect not named in the record; 340,000 compounds, 0.4% hits; Potency, µM (top dose mostly 76.9 µM), for the others: at the highest dose activity change, negative = inhibition, hits mostly inhibitors; active = falling curve of any shape with a large fitted effect; inconclusive = falling curve, mostly with a smaller effect; inactive = flat or rising curve; cell line not stated here;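 further: intracellular cAMP measured with PDE inhibitor Ro 20-1724 present during compound exposure; potency means the concentration at half of the fitted maximal effect; on the % scale 0 is the no-effect control and ±100 the full control effect; nearly all actives have a fitted effect of over 65% in size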
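G418-selected cells were plated in DMEM/10% FBS for 16-24 h at 37C, then treated with compounds plus the PDE inhibitor […] (300 uM solution added) for 30 min at 37C. Intracellular cAMP was measured by HTRF after 30 min lysis at room temperature.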
gsp agonist – qHTS for Agonist of gsp, the Etiologic Mutation Responsible for Fibrous Dysplasia/McCune-Albright Syndrome: qHTS | 340,000 compounds, 0.13% hits | gsp mutant cells, cAMP HTRF, 30 min; control for the full effect not named in the record | AID 624287, 2012 | Potency, µM (highest dose often 76.9 µM), without a hit: at the highest dose activation (cAMP increase), hits mostly activators; active = well fitted activation curve with a large enough effect; inconclusive = small, poorly fitted or top-dose-only effect, or another doubt; inactive = no such curve, though single readings can be large or run the other way; cell line not stated here;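 further: phosphodiesterase inhibitor Ro 20-1724 added with compounds to block cAMP breakdown; potency means the concentration at half of the fitted maximal effect; nearly all actives have a fitted effect of over 60% in size; about a fifth of the inactives were tested at one dose only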
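Cells in DMEM/10% FBS with G418 were pretreated with compounds in DMSO plus […] (300 uM stock) for 30 min at 37C. cAMP was measured by HTRF (cAMP-d2 plus anti-cAMP antibody-K) after 30 min at room temperature.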
TRPML1 inh – qHTS for Inhibitors of the Human Mucolipin Transient Receptor Potential 1 (TRPML1); AID 624415, 2012; TRPML1-inducible cells, Ca2+ dye fluorescence, FDSS; hits give low values; inhibition of EC80 agonist-evoked calcium signal; 390,000 compounds, 0.02% hits; activity change, negative = inhibition, % (concentration not given with the values); Mucolipin-1 (Homo sapiens), Q9GZU1; in the data active means activity change below about -50%; inconclusive means about -30% to -50%; inactive means above about -30%;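 further: stimulus is agonist 54-4 at its EC80 concentration; on the % scale 0 is the no-effect control and ±100 the full control effect; the text of the record puts the active cut at -80%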
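TRPML1-DL cells, Tet-induced overnight (~16 h, 37 °C) at 1,500 cells/well, were loaded with Ca8 no-wash dye plus quencher for 45-90 min at room temperature. Compounds were pinned during FDSS kinetic reading; agonist 54-4 at EC80 (4 uM final) then added.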
Numbers without * were called inactive; ? = inconclusive; · = not tested or not shown; [ ] = another dose, or the depositor's remark. The list is partial; the hit share may differ from the screen's.

cpd	SMILES	gsp agonist	TRPML1 inh	ClpP mod	gsp antag	TRPML1 agonist	Menin-MLL FL inh
1	Cc1ccc(N2C(=O)NC(=O)/C(=C\c3cccn3C(C)(C)C)C2=O)cc1	0%	23	15%	-10%	0.8	27
2	O=C(Nc1nc(-c2ccccc2)c(-c2ccccc2)s1)c1ccc(S(=O)(=O)N(CCCl)CCCl)cc1	-2%	0	-6.0%	16%	0.3	6.4
3	CCOc1cc2c(cc1OCC)-n1cccc1C(c1cccc(F)c1)NC2 (configuration not stated)	-28%	18	-0.3%	8%	2.4	1.5
4	CC(OC(=O)c1cn(C)c2ccccc12)C(=O)N1CCCC1 (configuration not stated)	-23%	15	-2.7%	13%	0.1	·
5	CCCCN=Cc1c(O)n(-c2c(C)cc(C)cc2C)c(=O)[nH]c1=O	-14%	-8	-0.1%	-4%	0.3	?
6	COc1ccc(CNCCc2c(C)[nH]c3ccc(OC(F)(F)F)cc23)c(OC)c1	?	19	·	-1%	4.6	-18
7	CCCCCCN=C(C)c1c(O)n(Cc2ccccc2)c(=O)[nH]c1=O	-44%[inhibitor]	-15	-0.6%	4%	1.1	3.5
8	O=C(COc1ccc2ccccc2c1)N1CCN(Cc2ccncc2)CC1	-20%	8	-0.9%	-10%	-0.7	3.1
9	CC1=NCCc2c1[nH]c1ccccc21	·	·	?	-6%	·	?
10	Cc1cc(N)n(C2CCN(C)CC2)n1	1%	8	-1.7%	3%	3.5	-0.5
11	CCOc1ccc(-c2cc(C(=O)N3CCC4(CC3)OCCO4)c3ccccc3n2)cc1	-9%[15.4 µM]	43	·	11%	0.9	·
12	Clc1ccc(N2CCN(Cc3ccccc3Cl)CC2)cc1	5%	-3	0.5%	11%	3.3	4.6
13	CCCN(CC1CC1)CC(O)c1ccccc1 (configuration not stated)	1%[15.4 µM]	10	1.7%	15%	-0.9	5.1
14	O=C(c1ccc(C(F)(F)F)cc1)C1CCCN(Cc2ccc(CO)o2)C1 (configuration not stated)	5%	2	-3.3%	9%	0.1	11
15	Cc1cccc(OP(N)(=O)Oc2cccc(C)c2)c1	-10%	-6	-1.1%	6%	2.3	-1.0
16	CCCC1CCCCC12C(=O)NC(=O)NC2=O (configuration not stated)	-13%	-19	1.0%	1%	1.9	·
17	COc1ccc2nc(NC(=O)CCc3nc(C4=CCN(C)CC4)no3)sc2c1	-27%	7	-3.7%	4%	-0.4	1.7
18	N#CC(C#N)=C(N)c1cccnc1	-18%[15.4 µM]	-8	·	15%	-0.4	3.8
19	Cc1cccc(OP(=O)(Nc2ccc(F)cc2)Oc2cccc(C)c2)c1	3%[15.4 µM]	-2	·	-29%	0.5	3.0
20	CCCn1nc2ccccc2c1P(=O)(N1CCOCC1)N1CCOCC1	-14%	0	-1.3%	0%	-0.4	0.0
21	O=C(NCC(c1cccnc1)N1CCOCC1)Oc1ccccc1 (configuration not stated)	?	-2	-1.1%	8%	0.1	-1.0
22	COc1ccc(N2C(=O)CC(N3CCC(n4c(=O)[nH]c5ccccc54)CC3)C2=O)cc1 (configuration not stated)	-27%	-5	-0.8%	-23%	-0.3	-0.4
23	CCOC(=O)C1=C(N)OC(C)=C(C(=O)OCCOC)C12C(=O)Nc1ccccc12 (configuration not stated)	?	0	0.6%	18%	-0.8	1.7
24	Cn1c(O)c(/C=N/N2CCOCC2)c(=O)n(-c2ccccc2)c1=S	-24%[15.4 µM]	20	1.2%	0%	0.0	7.9
25	O=S(=O)(c1ccc(Cl)cc1)N1CC1c1ccccc1 (configuration not stated)	7%	6	-0.9%	-1%	1.2	2.4
26	O=C(O)C1C2c3ccccc3C(c3ccccc32)C1C(=O)Nc1ccccc1 (configuration not stated)	8%	-8	·	-6%	0.8	-1.1
27	CCN1CCN(c2ccc(N)cc2C)CC1	6%[15.4 µM]	-7	·	-14%	0.8	4.3
28	CC1=C2CCC3C(CCC4=CC(=O)CCC43C)C2CC1 (configuration not stated)	-65%[inhibitor]	81	·	-7%	2.6	·
29	C[Se]C[C@@H](N)C(=O)O	·	10	-1.0%	2%	-0.6	·
30	N#Cc1cc([N+](=O)[O-])ccc1NC(=O)c1cccn(Cc2cccc(F)c2)c1=O	·	-17	-3.5%	·	-0.2	·
31	Fc1cccc(CNCCc2c[nH]c3ccccc23)c1	-53%[inhibitor]	·	1.4%	8%	·	0.4
32	CCOP(=O)(OCC)C(NC(=O)C(Cl)Cl)C(Cl)(Cl)Cl (configuration not stated)	-36%[inhibitor]	-17	0.2%	7%	1.1	1.0

Compounds shown so far that contain a cyano group (two):
cpd	SMILES	gsp agonist	TRPML1 inh	ClpP mod	gsp antag	TRPML1 agonist	Menin-MLL FL inh
18	N#CC(C#N)=C(N)c1cccnc1	-18%[15.4 µM]	-8	·	15%	-0.4	3.8
30	N#Cc1cc([N+](=O)[O-])ccc1NC(=O)c1cccn(Cc2cccc(F)c2)c1=O	·	-17	-3.5%	·	-0.2	·

Next section.
cpd	SMILES	gsp agonist	TRPML1 inh	ClpP mod	gsp antag	TRPML1 agonist	Menin-MLL FL inh
33	C=CCn1c(O)c(C(CC)=NCCN2CCN(C(=S)NC)CC2)c(=O)[nH]c1=O	-4%[15.4 µM]	24	·	-5%	-0.8	0.6
34	Cc1ccc(NS(=O)(=O)c2ccc(OCC(=O)N3CCN(C)CC3)cc2)cc1	20%	-11	-1.1%	8%	0.1	0.1
35	Cc1cccc(-n2c(-c3ccccc3)nc3ccccc3c2=O)n1	?	-15	·	-7%	-0.2	-1.5
36	O=C1C=C(NS(=O)(=O)c2ccccc2)C(=O)c2ccccc21	-82%[inhibitor]	0	·	-15%	-0.4	·
37	O=C(c1ccc(Cl)cc1)C1CCCN(Cc2cccc3ncccc23)C1 (configuration not stated)	24%	39	-2.6%	-30%	3.5	8.4
38	O=c1c2ccccc2nc(-c2ccco2)n1-c1ccc(Br)cn1	3%	4	-3.8%	-5%	1.0	-4.5
39	O=C(Oc1cccnc1)c1ccc(Cl)cc1	1%	18	0.6%	-1%	-0.4	3.8
40	CN(C)c1cccc(CN2CCN(c3ccccc3)CC2)c1	·	5	-5.4%	·	0.4	·
41	S=C(c1ccc(Cl)cc1)N1CCOCC1	15%	2	-1.7%	13%	-0.6	-0.9
42	COc1ccc(CC(=O)N2C[C@H]3C[C@@H](C2)c2cccc(=O)n2C3)cc1	·	·	-28%	6%	·	3.6
43	FC(F)(F)c1ccc(CNCCc2ccc3c(c2)OCO3)cc1	-1%	3	1.3%	0%	1.2	-3.5
44	CC1C(c2cccs2)=[N+]([O-])C(C)(C(=O)c2ccc(F)cc2)N1O (configuration not stated)	-4%	2	-2.6%	1%	0.0	·
45	CCCCC/C(=N\O)c1c[nH]c2ccccc12	-8%	-8	4.2%	-2%	-0.4	0.6
46	Cc1ccc(N2C(=O)NC(=O)/C(=C\c3cc(C)n(-c4ccc(C(=O)O)cc4)c3C)C2=O)cc1	-11%	-5	·	7%	-0.5	18
47	CCc1ccccc1NC(=O)CN1CCN(C(=O)COc2ccccc2C#N)CC1	-16%	0	-0.4%	-6%	-1.1	·
48	CC(=O)N1CCC2(CC1)CC(=O)c1cc(OCC(=O)N3CCC4(CC3)OCCO4)ccc1O2	29%	29	4.1%	1%	-0.5	-2.6
49	CCC1CN(C)CCC1(OC(C)=O)c1ccccc1 (configuration not stated)	-21%	-5	0.1%	2%	-0.3	2.8
50	CC(=NCCO)c1c(O)n(C2CCCCC2)c(=O)[nH]c1=O	0%	-4	1.2%	0%	-0.3	1.5
51	O=C(COC(=O)Cc1ccccc1)Nc1ccc(F)cc1	-23%	2	·	1%	-0.5	-0.2
52	O=c1c2ccccc2nc(/C=C/c2cccc3ccccc23)n1-c1ccc(Cl)cc1	·	-5	0.5%	·	0.5	·
53	Cc1ccc(NC(=O)CN2C(=O)CN=C(c3ccccc3)c3ccccc32)cc1	·	10	1.4%	·	1.2	·
54	C=CCC1(CCCCC)C(=O)NC(=S)NC1=O	?	22	-0.6%	2%	2.5	·
55	C[C@@H]1CN([C@H](C)CO)C(=O)CCCn2cc(nn2)CO[C@H]1CN(C)C(=O)Oc1ccc2ccccc2c1	-11%	?	-3.3%	·	0.6	·
56	COc1ccc(CC(=O)NC(=S)NNC(=O)COc2c(C)cccc2C)cc1	-15%	-4	1.0%	6%	-0.3	2.9
57	Cc1ccc(-n2c(O)c(/C=C/C=Nc3ccccc3)c(=O)[nH]c2=O)cc1	-37%[inhibitor]	-28	1.2%	17%	4.3	·
58	CC1CCCCN1Cc1ccc(Cl)nc1 (configuration not stated)	26%[15.4 µM]	-18	·	5%	0.8	-1.3
59	O=P(NS(=O)(=O)c1ccc(Cl)cc1)(Oc1ccccc1)Oc1ccccc1	-33%[inhibitor]	0	0.3%	-4%	0.4	2.1
60	Cc1cc(OC(C)C(=O)NCc2ccncc2)c2c3c(c(=O)oc2c1)CCCC3 (configuration not stated)	?	15	4.7%	-9%	1.1	4.4
61	O=c1[nH]c(O)c(C=NC2CCCCC2)c(=O)[nH]1	28%	14	·	8%	4.0	-0.8
62	O=C(NC1(C(F)(F)F)Oc2ccc(Cl)cc2O1)N1CCC2(CC1)OCCO2 (configuration not stated)	?	2	1.2%	-13%	3.1	-1.3
63	O=c1[nH]c(O)c(C=Nc2cc(F)cc(F)c2)c(=O)[nH]1	-2%	10	-1.0%	-15%	0.0	-2.4
64	COc1ccc(CC2c3cc(OC)c(OC)cc3CCN2C)cc1O (configuration not stated)	·	-16	-3.1%	12%	-0.2	6.2
65	O=c1[nH]c(O)c(Cc2ccc3c(c2)OCO3)c(=O)[nH]1	22%[15.4 µM]	10	·	11%	-0.1	1.2
66	O=C(c1ccc(F)cc1)C(Cc1ccccc1)N1CCCCC1 (configuration not stated)	-19%[15.4 µM]	1	-2.1%	4%	-0.9	1.7
67	CCOC(=O)c1ccc(N2C(=O)CC(N3CCC(C#N)(c4ccccc4)CC3)C2=O)cc1 (configuration not stated)	-23%	7	-0.2%	-14%	-0.3	3.5
68	O=C(c1cccn2c(=O)c3ccccc3nc12)N1CCC2(CC1)OCCO2	-1%	-11	?	7%	3.1	3.1
